Source: PubChem BioAssay
NPYLR7 ag – mosquito NPYLR7 agonism | activation, % at 10 µM | 270,000 compounds, 0.15% hits | HEK293T NPYLR7/Galpha15, GCaMP6s calcium fluorescence; in the data active = activation above about 40%;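 also: 0% = vehicle and 100% = reference agonist at the receptor; some compounds past the cut are filed as inactive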
NPYLR7 ag max-min – further read-out of NPYLR7 ag, marked with its call; activation, %; measured here: Max-Min RFU normalised activation; some inactives read as strong as hits;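 span of the calcium signal over five minutes; 0% = vehicle and 100% = native peptide agonist; compound fluorescence can raise it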
* marks the source's active call; other numbers are inactive results; & = joins results of further samples. Only part of the results is shown; count on the stated rates, not on these rows.

SMILES	NPYLR7 ag	NPYLR7 ag max-min
Cc1cccc(OCC(=O)Nc2ccc(C#N)c(Cl)c2)c1	1	-1
CN(C)C1Cc2ccccc2N(C(=O)COc2ccc(N3CCCC3=O)cc2)C1 (configuration not stated)	2	-2
CC1CCCC(C)N1CC#CCO (configuration not stated)	-16	-22
CN1C(=O)C2(CCN(Cc3cc4n(n3)CCCNC4)CC2)c2ccccc21	15	12
COc1cc(CC(C)NCc2ccc3[nH]c(C)c(C)c3c2)ccc1O (configuration not stated)	4	4
O=P(Nc1ccc2c(c1)OCCO2)(Oc1ccccc1)Oc1ccccc1	6	3
CN1C2CCC1CC(OC(=O)c1cc(Cl)cc(Cl)c1)C2 (configuration not stated)	3	-28
C=CCO/N=C(/CCC)C1C(=O)CC(C)(C)C(C(=O)OC)C1=O (configuration not stated)	-9	-11
COc1ccc(/C=C2\Oc3c(ccc(OC(=O)N(C)C)c3C)C2=O)cc1	-3	-4
COc1cccc(N2C(=O)NC(=O)/C(=C/c3cn(C)c4ccccc34)C2=O)c1	-2	-7
CCOP(=S)(OCC)c1ccc(N(C)C)cc1	-10	-16
CN(C)C(=O)[C@H]1CN2CCC1C[C@@H]2Cn1cc(CC2CCCCC2)nn1 (some centres not stated)	1	-7
O=C(O)CCCc1ccc(N(CCCl)CCCl)cc1	-3&30&-5&6	-6&18&-17&-2
COc1ccc(CC(=O)N2CCN(Cc3cccnc3)CC2)c(OC)c1	-5	-6
CC(Cc1cccc(C(F)(F)F)c1)NC1CCC(n2cc(C(=O)NCCO)nn2)CC1 (configuration not stated)	21	17
COc1ccc(NP(=O)(Oc2ccccc2)Oc2ccccc2)cc1OC	3	3
CN(C)P(=O)(Oc1ccccc1C(O)(c1ccccc1)c1ccccc1)N(C)C	-2	-6
N#Cc1cccc(C(=O)N2CCN(CCOC(c3ccccc3)c3cccc(C(F)(F)F)c3)CC2)c1 (configuration not stated)	21	30
COc1cccc2sc(N3CCNCC3)nc12	0	-2
CNc1ccc2oc(C[C@H]3O[C@@]4(CC[C@H]3C)O[C@H]([C@H](C)C(=O)c3ccc[nH]3)[C@H](C)C[C@H]4C)nc2c1C(=O)O	2	6
Cc1nnc2ccc(-c3cccc(C(F)(F)F)c3)nn12	-11	-15
C/C=C/c1ccc(=O)n2c1[C@@H]1C[C@@H](CN(C(=O)NC(C)C)C1)C2	-8	-12
COP(=O)(OC)C(O)C(Cl)(Cl)Cl (configuration not stated)	-3	-5
Cc1ccc2cc(CN3CCN4CCC3CC4)c(=O)[nH]c2c1	2	-2
Cc1cc(Cl)ccc1C(=O)C1CCCN(Cc2nc3ccccc3[nH]2)C1 (configuration not stated)	7	5

Reprinted at random: 7 entries already listed
SMILES	NPYLR7 ag	NPYLR7 ag max-min
C=CCO/N=C(/CCC)C1C(=O)CC(C)(C)C(C(=O)OC)C1=O (configuration not stated)	-9	-11
CN(C)C1Cc2ccccc2N(C(=O)COc2ccc(N3CCCC3=O)cc2)C1 (configuration not stated)	2	-2
N#Cc1cccc(C(=O)N2CCN(CCOC(c3ccccc3)c3cccc(C(F)(F)F)c3)CC2)c1 (configuration not stated)	21	30
O=P(Nc1ccc2c(c1)OCCO2)(Oc1ccccc1)Oc1ccccc1	6	3
COc1cccc2sc(N3CCNCC3)nc12	0	-2
COc1ccc(NP(=O)(Oc2ccccc2)Oc2ccccc2)cc1OC	3	3
Cc1ccc2cc(CN3CCN4CCC3CC4)c(=O)[nH]c2c1	2	-2

Back to the main list, starting 2 compounds before the break.
SMILES	NPYLR7 ag	NPYLR7 ag max-min
Cc1ccc2cc(CN3CCN4CCC3CC4)c(=O)[nH]c2c1	2	-2
Cc1cc(Cl)ccc1C(=O)C1CCCN(Cc2nc3ccccc3[nH]2)C1 (configuration not stated)	7	5
O=S(=O)(N1CCOCC1)N1C[C@@H](c2ccccc2)[C@@H]2[C@H]1C1CCN2CC1	8	6
O[C@H]1CCN2CC3CC(CN4CCCC[C@H]34)[C@@H]2C1 (some centres not stated)	3	4
COc1ccc2c(c1)c(C(=O)NCc1cnc(C)cn1)nn2Cc1ccc(C(=O)N2CCOCC2)cc1	18	18
Cc1nc(CSC(c2ccccc2)c2ccc(Cl)cc2)no1 (configuration not stated)	1	2
N#CC(c1c[nH]c2ccccc12)N1CCOCC1 (configuration not stated)	5	2
O=C(CCc1cn2ccccc2n1)N1[C@H]2CCNC[C@@H]1CC2	5	4
c1ccc(CCCN2CCC3(CCNCC3)C2)cc1	21	9
CC(=O)Nc1ccc2c(c1)CC1(C(=O)NC(=O)NC1=O)C1CN(c3ccccc3F)CCN21 (configuration not stated)	1	39
OCC12COCN1C1(CCCCC1)OC2 (configuration not stated)	-17	-23
Nc1ccc(Cl)cc1C(=O)c1ccc(F)cc1	-4	2
O=c1c2cc(Br)ccc2nc(SCCN2CCOCC2)n1-c1ccccc1	3	9
Nc1nnc(P(c2ccccc2)c2ccccc2)s1	7	34
COCCNC(C)c1nc2cc(Cl)ccc2c(=O)n1-c1ccc(OC)cc1 (configuration not stated)	8	13
O=[N+]([O-])c1ccc(N2CCNCC2)cc1NN=C1CN2CCC1CC2	22	10
Cn1cc(C(=O)Nc2ccc3c(c2)OC(F)(F)O3)c2ccccc21	1	-2
COC[C@H]1CCCN1CCC(=O)Nc1cccnc1	14	8
CCOCCCNC1CC(C)CC(C)(C)C1 (configuration not stated)	3	1
CCOc1ccccc1NC(=O)N1CCN(CCOC(c2ccccc2)c2ccccc2)CC1	4	0
c1ccc(CC(c2ccccc2)N2CCCCC2)cc1 (configuration not stated)	2	-7
CCn1ncnc1CN1CCC2(CCCNC2)C1 (configuration not stated)	6	3
CCCCCc1ccc(C(=O)Nc2ccc3[nH]cc(CCN4CCOCC4)c3c2)cc1	-4	-7
Cc1ccccc1Cn1cc(C(=O)NCCC2=CC[C@H]3C[C@@H]2C3(C)C)nn1	1	-4
COc1cc(C=C2C(=O)NC(=O)NC2=O)cc(OC)c1O	-10	-15
O=C(CN(C(=O)c1ccc(Cl)cc1)C1CC1)Nc1nc(CC(=O)N2CCN(C/C=C/c3ccccc3)CC2)cs1	-6	0
N#CC1C(=N)Oc2c(c(=O)oc3ccccc23)C1c1ccccc1F (configuration not stated)	2	-5

Gathered by group: the compounds so far with a CF3 group.
SMILES	NPYLR7 ag	NPYLR7 ag max-min
CC(Cc1cccc(C(F)(F)F)c1)NC1CCC(n2cc(C(=O)NCCO)nn2)CC1 (configuration not stated)	21	17
N#Cc1cccc(C(=O)N2CCN(CCOC(c3ccccc3)c3cccc(C(F)(F)F)c3)CC2)c1 (configuration not stated)	21	30
Cc1nnc2ccc(-c3cccc(C(F)(F)F)c3)nn12	-11	-15

Back to the main list; the seven compounds before the break are reprinted first.
SMILES	NPYLR7 ag	NPYLR7 ag max-min
c1ccc(CC(c2ccccc2)N2CCCCC2)cc1 (configuration not stated)	2	-7
CCn1ncnc1CN1CCC2(CCCNC2)C1 (configuration not stated)	6	3
CCCCCc1ccc(C(=O)Nc2ccc3[nH]cc(CCN4CCOCC4)c3c2)cc1	-4	-7
Cc1ccccc1Cn1cc(C(=O)NCCC2=CC[C@H]3C[C@@H]2C3(C)C)nn1	1	-4
COc1cc(C=C2C(=O)NC(=O)NC2=O)cc(OC)c1O	-10	-15
O=C(CN(C(=O)c1ccc(Cl)cc1)C1CC1)Nc1nc(CC(=O)N2CCN(C/C=C/c3ccccc3)CC2)cs1	-6	0
N#CC1C(=N)Oc2c(c(=O)oc3ccccc23)C1c1ccccc1F (configuration not stated)	2	-5
CCC(=O)CCCCC[C@@H]1NC(=O)[C@H]2CCCCN2C(=O)[C@H]([C@@H](C)CC)NC(=O)[C@H](Cc2cn(OC)c3ccccc23)NC1=O	-9	-14
O=C(c1ccc(F)cc1C(F)(F)F)N1CCN(CCOC(c2ccccc2)c2ccccc2)CC1	5	2
c1cc(Cc2cnc[nH]2)ccn1	-13	-16
Cc1nn(CCC#N)cc1C=C(C#N)C#N	9	5
COc1ccc(OC)c(NP(=O)(Oc2ccccc2)Oc2ccccc2)c1	-3	-4
Clc1c(C2NCCc3[nH]cnc32)sc2ccccc12 (configuration not stated)	2	0
CN(c1ccccc1)S(=O)(=O)c1ccc(Cn2nc(C(=O)Nc3nc4ccccc4s3)c3ccccc32)cc1	-4	19
CC(c1ccccc1)N1CCN(c2ccc([N+](=O)[O-])cc2)CC1 (configuration not stated)	11	9
Cc1ccc(-n2c(C(C)N3CCNC(C)C3)nc3ccccc3c2=O)cc1 (configuration not stated)	3	15
Cc1ccc(-n2c(C)cc(C=C3C(=O)NC(=S)NC3=O)c2C)cc1	-1	-1
FC(F)(F)c1cccc(C(OCCN2CCN(Cc3nccs3)CC2)c2ccccc2)c1 (configuration not stated)	18	12
CCOC(=O)c1coc(N2C[C@@H](c3ccccc3OC)[C@@H]3[C@H]2C2CCN3CC2)n1	-5	-7
N#Cc1ccccc1-c1ccc(COc2coc(CN3CCN(C(=O)COc4ccccc4)CC3)cc2=O)cc1	1	-5
CCOC(=O)[C@H]1CN(S(=O)(=O)c2ccccc2)[C@]2(C)C(=O)N(CC3CC3)c3ccccc3[C@H]12	2	4
Cc1ccc(Cn2cccc(C(=O)Nc3ncc([N+](=O)[O-])s3)c2=O)cc1	10	1
Cc1nc(C2(NCC(=O)NCCc3ccc(F)cc3)CCCCC2)no1	-5	-7
Nc1ccc(C(=O)N2CCCC3(CCNC3)C2)cn1 (configuration not stated)	5	1
CCCC1CCC(NC(C)C)CC1 (configuration not stated)	8	3
NC(=O)c1ccccc1NC(=O)c1cccn(Cc2ccc(Br)cc2)c1=O	1	2
COc1ccccc1[C@@H]1CN(C(=O)c2cc(=O)[nH]c(=O)[nH]2)[C@@H]2C3CCN(CC3)[C@@H]21	-1	-8
CCN1C[C@@]2(COC)C3[C@@H](OC)[C@H]4[C@@H]1[C@]3(C(OC)C[C@H]2O)C1C[C@@]2(O)[C@H](OC(=O)c3ccccc3)C1[C@]4(OC(C)=O)[C@@H](O)[C@@H]2OC (some centres not stated)	-9	-13
CN(CCc1ccc2c(c1)CCO2)Cc1cnccn1	1	-3
c1ccc(Oc2ccccc2C[N+]23CCN(CC2)CC3)cc1	1	1
CN1C(=O)C(=Cc2ccc(OCc3c(F)cccc3Cl)cc2)C(=O)N(C)C1=O	-18	-25
COc1cc(OC)c(OC)cc1C=O	-8	-17

Continued:
SMILES	NPYLR7 ag	NPYLR7 ag max-min
CCOC(=O)CNC(=O)N1C[C@H](C(=O)OCC)[C@H]2c3ccccc3N(CC3CC3)C(=O)[C@]21C	-13	-5
Cc1ccsc1CN(Cc1ccc2c(c1)OCO2)C(=O)CN(CCN1CCCC1)C(=O)Cc1ccccc1	-3	0
C[N+](C)(C)CCOC(=O)CBr	8	-4
COc1ccc(OC)c(CC(=O)N2CCN(Cc3cc(=O)c(OCc4cc(C)cc(C)c4)co3)CC2)c1	3	2
Cc1cc(C(=O)OCC(=O)N2CC3(C)CC2CC(C)(C)C3)c(C)n1C1CC1 (configuration not stated)	3	2
C[C@H]1CC[C@]2(NC1)O[C@H]1C[C@H]3[C@@H]4CC[C@H]5C[C@@H](O)CC[C@]5(C)[C@H]4CC[C@]3(C)[C@H]1[C@@H]2C	-5	-11
C=CCNC(=O)c1cn(C(C)(C)C)c2ncccc12	2	1
O=c1c2ccccc2nc(Cc2ccccc2)n1-c1cccc(O)c1	8	10
O=C(c1cn(Cc2ccccc2C(F)(F)F)nn1)N(Cc1ccccc1)CC1CCC1	2	-6
CCCCC(=O)N1CCN(CCOC(c2ccccc2)c2ccccc2)CC1	-5	-2
CN1CCCN(C(=O)Cc2ccsc2)CC1	17	7
Cc1ccc(NP(C)(=O)c2nc3c(s2)CCCC3)cc1 (configuration not stated)	1	-3
NC1CCc2cc(O)c(O)cc2C1 (configuration not stated)	-5	-19
Cc1ccnc(CC(C)N(C)Cc2c(C)nn(C(C)(C)C)c2C)c1 (configuration not stated)	2	1
CC12CN3CC(C)(CN(C1)C3c1ccccn1)C2O (configuration not stated)	4	5
CC(=O)Nc1cc([As](=O)(O)O)ccc1O	-5	-9
COc1ccc(C)cc1NC(=O)c1cccn(Cc2ccc(C)cc2)c1=O	16	10
COc1cccc([C@@H]2CCN(Cc3cc4ccccc4n(C)c3=O)C[C@H]2O)c1	-5	-8
O=C(O)c1cc2ccccc2oc1=O	3	2
COCCNC(=O)c1nn(Cc2ccc(OC(F)F)cc2)c2ccccc12	19	20
O=C(O)c1cccc(S(=O)(=O)N(CCS(=O)(=O)F)CCS(=O)(=O)F)c1	-5	-10
Cc1nccnc1N1C[C@H](c2cccc(F)c2F)[C@@H]2[C@H]1C1CCN2CC1	6	-2
O=[N+]([O-])c1ccc(NS(=O)(=O)c2ccc(F)cc2F)cc1C(F)(F)F	5	12
CC1(C)OC1COc1c2occc2cc2ccc(=O)oc12 (configuration not stated)	1	0
O=C(c1nn(Cc2ccc(OCc3ccccc3)cc2)c2ccccc12)N1CCN(CCO)CC1	19	20

(continued)
SMILES	NPYLR7 ag	NPYLR7 ag max-min
CC12CN3CCN(CC(C3)C1=NNC(=O)c1ccncc1)C2	11	11
CCC(CC)NCCc1nncn1C(C)C	5	3
O=[N+]([O-])c1c(Cl)ccc2c1no[n+]2[O-]	2	2
CCOC(=O)C1CCN(/C=C2/C(=O)NC(=O)N(c3cccc(C)c3C)C2=O)CC1	-9	-12
C#CC1(OCC(O)CNC2CCCCC2)CCCCC1 (configuration not stated)	1	18
CCNc1ncc(C(=O)N2CCCC3(CCN(C)C3)C2)cn1 (configuration not stated)	5	2
COC(=O)c1ccc(C(=O)OC)c(NC(=O)c2cccn(Cc3cc(C)ccc3C)c2=O)c1	15	11
CCOC(=O)c1c(C)n(CC(C)C)c2ccc(O)cc12	-8	-16
CNC(=O)c1nn(Cc2ccc(S(=O)(=O)N(C)OC)cc2)c2ccccc12	5	32
CC(C)CC(N)C1(c2ccc(Cl)cc2)CCC1 (configuration not stated)	-12	-16
O=P(C=C(Cl)c1ccccc1)(C=C(Cl)c1ccccc1)N1CCCC1	-5	-10
O=Cc1cn(Cc2ccc(C(=O)O)o2)c2ccccc12	6	4
N#Cc1ccc(NC(=O)CNc2ccccc2F)cc1Cl	-8	-10
